AID923 – qHTS Assay for Allosteric/Competitive Inhibitors of Caspase-1: Spectroscopic Profiling in AFC Spectral Region. AID 923, 2007. compound fluorescence, AFC spectral region (405/520 nm); almost no hit is shown here. hit rate 1.1% among 75,000. Potency, µM (series often up to 57.5 µM), for inactives: at the highest dose fluorescence increase, usual class: activators; active = well fitted activation curve with a large enough effect; inconclusive = small, poorly fitted or top-dose-only effect;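 note: potency is the fitted concentration of half-maximal effect; 0% is about no effect; scaled to a free AFC standard on each plate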
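Compound autofluorescence profiled at 405 nm ex/520 nm em during kinetic caspase 1 run (50 nM enzyme, 5 uM Ac-WEHD-AFC, HEPES pH 7.5, 10 mM DTT). Titration up to 57 uM; baseline from regression intercept, normalized to AFC standard curve.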
A488 fluor – compound autofluorescence in A488 spectral region. compound autofluorescence, A488 spectral region, dye equivalency; active compounds read high. max dye equivalency, M. hit rate 0.1% among 59,000. AID 591; active = above 10 nM dye equivalent; inconclusive = 1 to 10 nM; inactive = 1 nM or less; about half of its hits are not listed in these tables;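 note: highest value over a series up to 38 µM; compound alone in buffer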
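Intrinsic compound fluorescence is measured in 100 mM Tris buffer at pH 8.0 following 15 min incubation at room temperature. Intensities at 480 nm excitation/540 nm emission are calibrated to an on-plate A488 concentration series, giving dye-equivalent concentrations.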
Resorufin fluor – compounds fluorescent in resorufin spectral region. Compound fluorescence, resorufin region 547/598 nm, buffer; active compounds read high. max dye-equivalent concentration, M. hit rate 0.04% among 59,000. AID 588; active = above 10 nM dye equivalent; inconclusive = 1 to 10 nM; inactive = 1 nM or less; a few of its hits are not listed in these tables; note: highest value over a series up to 38 µM
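Compounds in 100 mM Tris, pH 8.0, incubated 15 min at room temperature, then fluorescence read at 547 nm excitation/598 nm emission. Signal converted to dye-equivalent concentration via an on-plate six-point resorufin standard curve, per compound concentration.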
A647 fluor – compound autofluorescence in A647 spectral region. Compound fluorescence, A647 channel (570/671 nm), Tris buffer. max dye-equivalent concentration, M. 59,000 tested, under 10 active. AID 592; active means above 1 µM dye equivalent; inconclusive means 0.1 to 1 µM; inactive means 0.1 µM or less;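 note: values scaled relative to a standard on each plate; highest value over a series up to 38 µM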
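Compounds pinned into 100 mM Tris pH 8.0, 15 min at room temperature, then read with 570 nm excitation/671 nm emission filters. Fluorescence normalized to an on-plate six-point Alexa 647 standard curve, giving dye-equivalent concentration per compound concentration.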
TSHR ag – activates the human thyroid stimulating hormone receptor | hit rate 0.48% among 73,000 | AID 926 | P16473 | Potency, µM (titrated, usually from 57.1 µM), inactives show top-dose activation, usual class: activators | HEK293-CNG-TSHR cells (CNG channel as cAMP sensor), membrane potential dye, cAMP; active = well fitted activation curve of enough size with the parental cells flat; inconclusive = any curve in the parental cells; inactive = parental cells flat and receptor cells flat or falling; note: potency is the fitted concentration of half-maximal effect; % of control where 0% means no effect; weak receptor curves with flat parental cells got no call and are not listed
Target sequence (P16473 whole entry, looked up): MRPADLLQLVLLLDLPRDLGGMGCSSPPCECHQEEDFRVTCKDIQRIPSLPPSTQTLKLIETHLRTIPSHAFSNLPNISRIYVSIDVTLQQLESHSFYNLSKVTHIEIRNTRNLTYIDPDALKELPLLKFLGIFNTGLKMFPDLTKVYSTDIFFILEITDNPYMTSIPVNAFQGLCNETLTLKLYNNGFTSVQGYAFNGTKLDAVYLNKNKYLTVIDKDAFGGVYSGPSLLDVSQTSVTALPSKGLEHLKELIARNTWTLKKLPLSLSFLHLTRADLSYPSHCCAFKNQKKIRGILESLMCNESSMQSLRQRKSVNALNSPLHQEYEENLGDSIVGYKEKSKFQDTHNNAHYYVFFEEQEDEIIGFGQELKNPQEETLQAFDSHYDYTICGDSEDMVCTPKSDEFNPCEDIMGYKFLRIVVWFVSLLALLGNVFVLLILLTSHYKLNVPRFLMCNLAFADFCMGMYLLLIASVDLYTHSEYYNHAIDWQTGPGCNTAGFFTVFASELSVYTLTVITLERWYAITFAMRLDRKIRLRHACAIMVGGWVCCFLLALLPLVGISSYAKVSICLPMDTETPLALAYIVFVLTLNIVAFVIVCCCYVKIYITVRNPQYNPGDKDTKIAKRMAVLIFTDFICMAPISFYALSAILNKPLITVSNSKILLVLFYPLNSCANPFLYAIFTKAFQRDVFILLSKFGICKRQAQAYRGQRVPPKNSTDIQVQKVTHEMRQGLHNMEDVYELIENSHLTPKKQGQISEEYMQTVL
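HEK 293 cells stably expressing TSHR and a cAMP-gated CNG channel; parental CNG-only cells as counterscreen. Cells preloaded 60 min with membrane potential dye plus 100 uM RO 20-1724, then compound 30 min; fluorescence read at 590 nm.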
* hit, by the source's call; i = inactive; ? = inconclusive; / = no result given; [ ] = another dose, or the depositor's remark. An excerpt; count on the stated rates, not on these rows.

SMILES	AID923	A488 fluor	Resorufin fluor	A647 fluor	TSHR ag
COCCn1nnnc1CN1C2CCCC1CC(NC(C)=O)C2 (configuration not stated)	0.3%	i	i	2.4e-08	0.6%
O=c1oc2ccccc2n1CSC1=NCCS1	-0.4%	i	i	5.3e-09	17.8%
CN1CCN(C(=O)N2c3ccccc3C=Cc3ccccc32)CC1	-1.9%	/	/	/	-1.7%
COc1ccc(Oc2ncc3ncc(=O)n(CCC#N)c3n2)cc1	1.3%	i	i	1e-09	4.5%
C=CCOc1cccc(C2/C(=C(/O)c3ccc(C)cc3)C(=O)C(=O)N2CCN2CCOCC2)c1 (configuration not stated)	-0.6%	i	i	3.9e-09	1.5%
CCC(=O)N1CCc2cc(S(=O)(=O)NCCN3CCCCC3CC)ccc21 (configuration not stated)	-0.4%	i	i	1e-09	5.4%
O=C1C(=O)N(CCCn2ccnc2)C(c2cccnc2)/C1=C(/O)c1ccc(Cl)cc1 (configuration not stated)	-1.1%	/	/	/	-2.2%[11.4 µM]
O=C(CCC(=O)c1cccs1)Nc1ccccc1F	-2.0%	i	i	6e-09	-4.4%
COc1ccccc1-c1nccc(N2CCN(C)CC2)n1	-3.3%	i	i	1e-09	25.7%
CCOc1ccccc1N1CCN(C(=O)Nc2cccc(Cl)c2)CC1	1.7%	i	i	2.26e-08	-3.5%
C=CCSc1nc2ccccc2c(=O)[nH]1	-4.6%	/	/	/	-4.9%
CN(C)c1ccc(-c2nc(NC3CCNCC3)c3ccccc3n2)cc1	1.0%	i	i	1e-09	-8.5%
CC(Nc1nc(N2CCN(S(C)(=O)=O)CC2)nc2ccccc12)c1ccccc1 (configuration not stated)	-1.6%	i	i	2.23e-08	-47.8%[inhibitor]
CC(C)(C)OC(=O)N1CC2Cc3[nH]c(=O)ccc3C(C2)C1 (configuration not stated)	0.3%	i	i	2.18e-08	4.5%
Cc1cc(S(=O)(=O)N(Cc2ccc3c(c2)OCO3)CC2CCCO2)ccc1-n1cnnn1 (configuration not stated)	-0.1%	i	i	1e-09	6.0%
CCN(CC)C(=O)C1CCCN(Cc2ccc(F)c(F)c2)C1 (configuration not stated)	-0.9%	i	i	1.62e-08	4.0%
Cc1cc(C)n(-c2nnc(C)n2/N=C/c2ccccc2F)n1	/	i	i	5.83e-08	/
CCc1cc2c(NCC3CCCO3)ncnc2s1 (configuration not stated)	0.6%	i	i	1e-08	5.2%
COc1ccccc1C1CC(c2ccc(F)cc2)Nc2ncnn21 (configuration not stated)	1.4%	i	i	2.9e-09	?
Cc1cccc(-n2ccnc2SCC(=O)Nc2ccc3c(c2)OCCO3)c1	-1.6%	i	i	6.2e-09	6.0%[11.4 µM]
Fc1ccccc1N1CCN(C(c2cccs2)c2nnnn2CCc2ccccc2)CC1 (configuration not stated)	-0.1%	i	i	3.36e-08	?
O=C(CSc1nc2ccccc2[nH]1)N1CCN(c2ccc(F)cc2)CC1	0.2%	i	i	3.11e-08	17.9%
Cc1cc(COc2ccccc2OCCN2CCN(C)CC2)no1	/	i	i	1.4e-09	/
CCOC(=O)Cn1nnnc1C(CC)N(Cc1cc2c(C)cc(C)cc2[nH]c1=O)C1CCCC1 (configuration not stated)	0.8%	i	i	7.9e-09	11.6%
COc1cccc(N2C(=O)N(c3ccccc3)C3CS(=O)(=O)CC32)c1 (configuration not stated)	5.5%	/	/	/	21.2%
SMILES	AID923	A488 fluor	Resorufin fluor	A647 fluor	TSHR ag
Cc1cnc(C(=O)OCC(=O)Nc2ccc(Oc3ccccc3)cc2)cn1	-0.5%	i	i	1e-09	-8.8%
CN(C)S(=O)(=O)N1CCN(c2ccc(Cl)cc2)CC1	0.7%	i	i	1.21e-08	-5.2%[11.4 µM]
COCC(=O)N(Cc1ccccc1)c1ccccn1	-0.9%	i	i	1e-09	-0.6%
COc1cc(C(=O)OCC(=O)Nc2ccc3c(c2)OC(F)(F)O3)ccc1OCc1c(C)noc1C	0.3%	i	i	1e-09	/
CCn1c(COc2ccccc2OC)nnc1SCC#N	-1.3%	i	i	2.6e-09	-7.7%
O=C(NCc1ccc2c(c1)OCO2)C1CCCN1C(=O)Nc1cccc(F)c1 (configuration not stated)	0.8%	i	i	1.9e-09	11.6%
CC(C)NC(=O)Cn1cc(C#N)c2cc(Br)ccc21	0.5%	i	i	1e-09	2.6%
O=C(NCc1ccco1)c1ccc2c(c1)N(Cc1ccccc1)C(=O)CS2=O (configuration not stated)	-3.8%	/	/	/	-0.4%
O=C(NC(=O)c1ccccc1)NC1(C(F)(F)F)OCCO1	2.2%	i	i	1e-09	5.8%
Cc1cc(NC(=O)CSc2nc3ccccc3c(=O)n2Cc2ccc(F)cc2)no1	0.4%	i	i	1e-09	10.3%
COc1ccc(S(=O)(=O)N2CCN(C(=O)CCC3CCCC3)CC2)cc1	1.1%	i	i	1e-09	1.1%
CCOC(=O)C1=C(O)C(Nc2nccs2)(C(F)(F)F)N=C1C (configuration not stated)	-0.6%	i	i	1.6e-09	?
CC(=O)OCCNc1cc(N2CCN(C)CC2)c2noc3c2c1C(=O)c1ccccc1-3	13.7%	/	/	/	-35.4%[inhibitor]
COc1ccc(-c2nnc(CSc3nc4ccccc4c(=O)n3C)o2)cc1OC	-2.5%	i	i	1.3e-08	?
O=[N+]([O-])c1ccc(CS(=O)Cc2ccccc2)cc1 (configuration not stated)	1.4%[11.5 µM]	i	i	1e-09	-0.7%[11.4 µM]
NC(=S)c1ccc(C(N)=S)o1	-0.7%	i	i	5.7e-09	-3.3%
COC(=O)c1ccc(S(=O)(=O)c2ccc(C(=O)OC)s2)s1	-1.7%	/	/	/	-6.0%
CCN(CC)c1ccc(NC(=O)c2cc(OC)cc(OC)c2)c(C)c1	0.3%	i	i	1.8e-09	-16.6%
Cc1cc(=O)n2nc(N3CCCC3C(=O)NCCCN3CC(C)CC(C)C3)sc2n1 (configuration not stated)	0.1%	i	i	1e-09	0.5%
O=C(O)CCn1c(C2CCCCC2)nc2ccccc21	-1.2%	i	i	8.3e-09	5.9%
O=C(COC(=O)c1ccc(S(=O)(=O)NCc2ccco2)cc1)NCCC1=CCCCC1	2.1%	i	i	1e-09	1.2%
COc1cc(S(=O)(=O)N2CCN3CCCC3C2)ccc1-n1cnnn1 (configuration not stated)	-0.4%	i	i	1.89e-08	1.3%
CCOC(=O)c1[nH]c2c(c1C)C(=O)CC(c1ccc(OC)c(OC)c1)C2 (configuration not stated)	-0.7%	i	i	2.48e-08	2.7%
CCCCC(CC)CNS(=O)(=O)c1ccc2c(c1)CCN2C(=O)CCC(=O)O (configuration not stated)	-1.4%	i	i	3.28e-08	1.6%
CCCCn1c(=O)c(-c2ccccc2)c(O)c2ccccc21	-0.7%	i	i	3.68e-08	4.9%

As a working copy, two of the compounds above:
SMILES	AID923	A488 fluor	Resorufin fluor	A647 fluor	TSHR ag
CCCCC(CC)CNS(=O)(=O)c1ccc2c(c1)CCN2C(=O)CCC(=O)O (configuration not stated)	-1.4%	i	i	3.28e-08	1.6%
CCCCn1c(=O)c(-c2ccccc2)c(O)c2ccccc21	-0.7%	i	i	3.68e-08	4.9%

A few values from the list:
Reading for CC(C)NC(=O)Cn1cc(C#N)c2cc(Br)ccc21 in AID923: 0.5%
Reading for CCn1c(COc2ccccc2OC)nnc1SCC#N in AID923: -1.3%
Reading for COCC(=O)N(Cc1ccccc1)c1ccccn1 in AID923: -0.9%
Reading for O=C(NCc1ccc2c(c1)OCO2)C1CCCN1C(=O)Nc1cccc(F)c1 (configuration not stated) in A647 fluor: 1.9e-09
Reading for NC(=S)c1ccc(C(N)=S)o1 in A647 fluor: 5.7e-09
Reading for COc1ccc(-c2nnc(CSc3nc4ccccc4c(=O)n3C)o2)cc1OC in AID923: -2.5%
Reading for Cc1cnc(C(=O)OCC(=O)Nc2ccc(Oc3ccccc3)cc2)cn1 in A647 fluor: 1e-09

Additional results follow:
SMILES	AID923	A488 fluor	Resorufin fluor	A647 fluor	TSHR ag
COC(=O)[C@@]1(Cc2ccc(F)cc2)[C@H]2c3cc(C(=O)N(C)C)n(CCc4ccc(OC)c(Br)c4)c3C[C@H]2CN1C(=O)c1ccccc1	0.3%	/	/	/	4.6%
CCOC(=O)C(NC(=O)c1cccnc1)(Nc1cccc(C)n1)C(F)(F)F (configuration not stated)	-0.3%	i	i	1.91e-08	4.5%
CC(C)(C)C(=O)CC(=O)Nc1ccc(Cl)c(N)c1	-0.8%	/	/	/	2.2%
CCSc1nnc(NC(=O)CN(C)S(=O)(=O)c2ccc(F)cc2)s1	0.5%	i	i	4.46e-08	-5.8%[11.4 µM]
CCc1ccc(OCCCC(=O)O)c(Br)c1	0.2%	i	i	2.3e-09	13.3%
O=C(Nc1ccccc1C(=O)NCc1ccco1)NC1CCCCC1	1.2%	i	i	1e-09	8.0%[11.4 µM]
COc1ccc(CNC(=O)C2CC(=O)N(c3ccc(OCC(=O)N4CCCCC4)cc3)C2)cc1 (configuration not stated)	-0.8%	i	i	2.04e-08	-10.9%
COc1ccccc1C(=O)N1CCN(c2cccc(C(F)(F)F)c2)CC1	-1.1%	i	i	1.05e-08	?
COC(=O)[C@H](Cc1ccccc1)NC(=O)N1CC(C)OC(C)C1 (some centres not stated)	-1.2%	i	i	2.81e-08	-0.7%
Cc1cc2ccccc2c(=O)n1CC(=O)Nc1ccc2c(c1)OCO2	0.7%	i	i	1e-09	3.5%
CC(=Nc1ccccc1)Nc1ccccc1	0.4%	/	/	/	-1.7%
c1ccc(-c2nnc(Cn3c4ccccc4c4nc5ccccc5nc43)o2)cc1	-0.3%	i	i	4.71e-08	?
Cc1cc(NC(=O)CSc2nc3sc4c(c3c(=O)n2C)CCCC4)no1	1.8%	i	i	1.7e-09	9.8%
CC[C@@H]1OC(=O)[C@H](C)[C@H](O[C@@H]2C[C@](C)(OC)[C@H](O)[C@H](C)O2)[C@H](C)[C@H](O[C@@H]2O[C@@H](C)C[C@@H](N(C)C)[C@@H]2O)[C@](C)(O)C[C@H](C)C(=O)[C@H](C)[C@H](O)[C@]1(C)O	-1.8%[25.7 µM]	i	i	1e-09	?
O=C(NCCN1C(=O)CSC1=O)c1ccccc1	-2.8%	i	i	1.12e-08	4.1%
CCN(C(=O)c1coc(=O)c2ccccc12)c1cc(OC)ccc1OC	-1.2%	i	i	1.08e-08	?
CCN(CC)C(=O)Oc1ccc2c(=O)c(-c3ccc(OC)cc3)coc2c1	0.4%	i	i	1.25e-08	?
CCNC(=O)CC1SC(=Nc2ccccc2C)N(C)C1=O (configuration not stated)	-1.2%	i	i	8.1e-09	12.2%
CC(=O)[C@@H](C)CCO[C@@]1(C)OCC[C@@H]1C	2.1%[11.5 µM]	i	i	3.34e-08	-2.3%[11.4 µM]
Cc1cc(-c2ccccc2C(=O)NCc2ccccc2)on1	0.1%	i	i	1.86e-08	5.1%
Cc1cccc(-c2noc(CCc3ccccc3)n2)c1	1.0%	/	/	/	22.4%
CCN(CC)S(=O)(=O)c1cccc(C(=O)Nc2ccc(Cl)cn2)c1	-0.9%	i	i	1e-09	?
Cc1nnc(SCCn2c(N3CCC(C)CC3)nc3c2c(=O)n(C)c(=O)n3C)s1	-0.1%	i	i	4.76e-08	7.8%
Cc1ccc2[nH]c(=O)c(CN(Cc3cccs3)Cc3nnnn3CC3CCCO3)cc2c1 (configuration not stated)	-1.9%	i	i	1.95e-08	?
COc1ccc(NC(=O)C2CCCCN2S(=O)(=O)c2ccc(F)cc2)cc1 (configuration not stated)	2.1%	/	/	/	14.8%
Cc1cc(=O)oc2cc(NC(=O)C3COc4ccccc4O3)ccc12 (configuration not stated)	1.0%	i	i	3.3e-09	13.4%[11.4 µM]

Assay outcomes as filed in PubChem.
